Source: PubChem BioAssay
Sa ugtP lethal – growth inhibition of ugtP-null S. aureus, primary screen, RN4220 ugtP deletion, OD600. hit rate 0.54% among 330,000. 16 h; some inactives read as strong as hits. AID 1259309, 2017. growth inhibition, % (concentration not given with the values);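 active = z-score under -3 and OD600 up to 0.15 on both plates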;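 also: plate controls were untreated wells for no effect and antibiotic for full effect; wells of about 80 µL received 100 nL stock; the first replicate is given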
Bead autofluor – flagged as autofluorescent in microsphere protease counterscreen; compound autofluorescence counterscreen, microsphere flow cytometry; stronger effect = higher value; hit rate 3.1% among 360,000; fluorescence intensity (no concentration beside the values);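 active = at least 3 SD above the mean of all compounds, about 16000 in these data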;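 also: 100 nL of 1 mM stock went into each well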
Mtb hypoxia inh – PubChem AID 1159583. M. tuberculosis hypoxia-regulated fluorescent reporter, fluorescence. fluorescence inhibition, % (test concentration not listed). hit rate 0.1% among 300,000;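 active = 35 to 45% if threefold the growth effect, above 45% if 1.5-fold the growth effect; inactive = the rest, general growth blockers included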;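 also: wells of about 50 µL received 100 nL stock; 0% = vehicle wells and 100% = reference inhibitor wells; whole bacteria with a GFP reporter of the hypoxia response; strong numbers were not always called active; many hits fall short of the cut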
Sa RN4220 lethal – growth inhibition of S. aureus RN4220, primary screen, OD600; inhibition, % (concentration not given with the values); hit rate 0.33% among 330,000; 16 h;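 active = z-score of -3 or lower and OD600 up to 0.18 on both plates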;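 also: plate controls were untreated cells for no effect and reference antibiotic for full effect; stock transfer was 100 nL into about 80 µL; one replicate is shown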
PrP UTR inh – inhibition of PrP 5' UTR reporter expression; hit rate 0.35% among 340,000; cell-based PrP 5' UTR mRNA reporter, plate reader; inhibition, % (concentration not given with the values); AID 488862, 2010;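 active = every replicate at 50% or more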;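 also: 0 = median of the neutral control wells; tested in H4 reporter cells; numbers are from one replicate; inactives centre near -14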
BJeLR lethal – MLPCN primary cell-based screen for lethality selective to Ras in HRASV12 cells | hit rate 0.17% among 300,000 | BJeLR (HRASV12) viability, CellTiter-Glo ATP luminescence, 48 h; reference of the scale not given here | inhibition, % (concentration not given with the values);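 active = replicate mean above 50%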;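 also: 50 nL library stock added to about 25 µL; numbers are from one replicate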
Mtb hypoxia inh growth – further read-out of Mtb hypoxia inh, marked with its call; growth inhibition, %; measured here: M. tuberculosis growth (absorbance);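 0% = vehicle and 100% = reference antibiotic; read after six days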
The depositor's hits bear a star; / = no result given.

SMILES	Sa ugtP lethal	Bead autofluor	Mtb hypoxia inh	Mtb hypoxia inh growth	Sa RN4220 lethal	PrP UTR inh	BJeLR lethal
C=CCOc1ccccc1CN1CCC(n2nccc2NC(=O)C2CCOC2)CC1 (stereo not given)	4	4650	-5	-3	1.5	-46	-8
CCOC(=O)C1CCCN(C(=O)c2ccc(OC(C)=O)cc2)C1 (stereo not given)	-2	11495	2	7	-0.1	-6	/
CC(=O)Nc1ccc(OCCOc2ccccc2C(C)=O)cc1	0	3008	0	-6	-1.6	12	-4
Cc1ccc(NC(=S)c2ccc3ccccc3n2)c(C)c1	/	3913	/	/	/	-72	14
COc1cc(C=NNC(=O)c2ccc(NC(=O)C3CCCCC3)cc2)ccc1O	5	/	-8	-4	2.4	/	/
COc1ccc(C(=O)N2CCN(C(=O)Cc3ccccc3)CC2)cc1	9	2420	3	-7	0.1	-6	-2
CCCCn1c(N)c(N(CC)C(=O)c2ccccc2C)c(=O)[nH]c1=O	1	6193	-1	-2	2.6	-13	-4
COc1ccc(CCNCC(O)COc2cccc(Br)c2)cc1OC (stereo not given)	8	3963	5	6	4.6	-12	-1
Cc1cc(-c2nnc(CCC(=O)N3CCN(Cc4cccc(F)c4)CC3)o2)c(C)o1	-5	4333	-2	-3	-1.7	-5	5
CCOC(=O)c1ccc(Oc2cc(C)nc(Cl)n2)cc1	2	3776	0	5	2.9	-14	-6
O=[N+]([O-])c1cc(-c2cnc3ccccc3n2)ccc1Cl	6	3184	7	13	2.0	-48	8
COc1ccc(N(CC(=O)NCCc2ccccc2)C(=O)CCC(=O)Nc2ccccn2)cc1	8	4465	5	6	2.6	-8	1
COC(=O)c1ccccc1NC(=O)CSc1nccc(C)n1	-3	4250	2	1	1.9	5	9
CC(=O)c1c(C)[nH]c(C(=O)COc2cc(C)ccc2C(C)C)c1C	6	2356	10	11	9.9	-3	15
CSc1nc(NC(C)C)nc(NC(C)C)n1	2	2923	3	4	3.2	-4	/
c1ccc(CNc2nc(-c3cccnc3)cs2)cc1	-3	4274	2	1	2.7	-28	-2
O=C(NN=Cc1cccc([N+](=O)[O-])c1)C1CC(=O)N(c2ccc(F)cc2)C1 (stereo not given)	5	/	5	0	1.9	/	/
Cc1ccc(S(=O)(=O)N2CCN(C(=O)COC(=O)/C=C/c3ccc([N+](=O)[O-])cc3)CC2)c(C)c1	6	8426	9	6	1.6	-25	/
COc1ccc(CCC(=O)OCC(=O)Nc2ccccc2OC(F)F)cc1OC	8	4626	6	8	2.9	-5	-5
COc1cccc(CN2C(=NC(=O)CCC3CCCC3)SC3CS(=O)(=O)CC32)c1 (stereo not given)	-4	5149	3	-1	5.1	-15	4
COCCN(C(=O)CNC(=O)c1ccco1)C(C(=O)NC1CCCCC1)c1cccnc1 (stereo not given)	9	2892	3	-3	4.5	-16	-2
Cc1cc2nc(/C(C#N)=C/c3ccncc3)[nH]c2cc1C	11	4429	13	2	1.2	-18	0
S=C1NCCNC(=S)NCCOCCN1	1	3524	-4	-2	3.7	-21	-4
CCC1CCCCN1C(=O)N[C@@H](Cc1ccccc1)C(=O)O (stereo not given in full)	-4	23663*	8	2	2.8	-28	-2
CCCS(=O)(=O)Nc1ccc(N2CCCCC2)c(S(=O)(=O)Nc2ccccc2OC)c1	-4	7632	-10	-4	5.5	-16	/

Continuation.
SMILES	Sa ugtP lethal	Bead autofluor	Mtb hypoxia inh	Mtb hypoxia inh growth	Sa RN4220 lethal	PrP UTR inh	BJeLR lethal
CC1(NC(=O)CCc2nc3sc4c(c3c(=O)[nH]2)CCCC4)CCS(=O)(=O)C1 (stereo not given)	3	5692	4	1	4.3	-7	-13
CCOc1ccc(NC(=O)CN2CCN(CC(=O)Nc3ccc(F)cc3)CC2)cc1	12	4696	/	/	11	-18	2
C/C(N)=C(/C#N)C(=O)COC(=O)CCSc1ccccc1Cl	1	4239	/	/	6.7	-13	4
CC(NC(=O)c1ccc(OC2CCN(Cc3ccccn3)CC2)cc1)c1ccccc1 (stereo not given)	2	4908	13	8	2.5	-11	-4
COCCCNc1nc2ccccc2nc1NS(=O)(=O)c1ccc(Cl)cc1	5	2921	0	-4	3.5	-11	-1
NNC(=O)c1cccc(S(=O)(=O)Nc2cc(Cl)ccc2Cl)c1	0	5368	17	10	6.8	-55	-10
Cc1cc(N2C(=O)CC(Cc3ccc(Cl)cc3)C2=O)no1 (stereo not given)	8	5127	10	11	3.0	-35	3
COc1ccc(NC(=O)Nc2cccs2)cc1Cl	-6	2473	17	6	1.6	-66	-1
NC(=O)c1ccc(/C=N/O)nc1	/	3261	/	/	/	-24	-5
Cc1ccc(/C=C(\CCC(=O)O)c2nc3ccccc3s2)cc1[N+](=O)[O-]	8	10108	-1	2	26	-10	-11
O=C(C(=O)N1CCN(c2ccccc2)CC1)c1cn(CC(=O)N2CCCCCC2)c2ccccc12	0	8102	2	7	1.4	-13	-7
O=C(NCCCn1ccnc1)/C(=C\c1ccco1)NC(=O)c1ccco1	1	2021	-3	7	1.1	-18	3
C=CCn1cc(C(=O)c2cc(Br)ccc2O)cc(C#N)c1=O	1	4497	18	10	1.8	0	11
CS/C(N)=N/N=Cc1cc(Br)cc(Br)c1O	3	/	4	-4	-8.0	/	/
COc1ccc(C2(O)CCN(C(=O)c3c(F)cccc3F)CC2)cc1	1	4987	3	8	1.5	-33	8
O=C(CNS(=O)(=O)N1CCOCC1)NN=Cc1cccnc1	10	/	7	4	1.6	/	/
COc1ccc(NC(=O)c2ccc(C)cc2)cc1	12	3775	8	1	8.1	-24	-6
Cc1ccc(S(=O)(=O)Nc2cc3c(cc2N2CCOCC2)n(C)c(=O)c(=O)n3C)cc1	-2	5497	-4	4	0.4	-3	-4
O=C(COC(=O)CCC(=O)c1cccs1)Nc1cccc(F)c1	3	9023	1	5	1.4	-12	/
COc1cc(NC(=O)c2cccc(F)c2)cc(OC)c1OC	3	2068	8	1	3.0	-13	-2
CC(CNC(=O)c1ccc2c(c1)OCO2)c1ccc([N+](=O)[O-])cc1 (stereo not given)	13	4183	8	4	3.6	-17	-8
Cc1ccc(S(=O)(=O)NCCCCC(NC(=O)OC(C)(C)C)C(=O)O)cc1 (stereo not given) (tested in a mixture with another compound)	4	6067	/	/	1.3	-5	1
O=C(COc1nnnc2ccccc12)N1CCCc2ccccc21	6	4094	1	8	3.7	-21	-8
CCn1c(=O)n(CC)c2cc(S(=O)(=O)NCCOc3ccccc3)c(C)cc21	1	10160	17	1	4.6	-28	-6
CCOC(=O)N1N=C(C)CC1(O)c1ccccc1 (stereo not given)	-1	2468	11	5	3.0	-22	21

Single values from above:
Reading for COc1ccc(NC(=O)Nc2cccs2)cc1Cl under PrP UTR inh: -66
Reading for C=CCn1cc(C(=O)c2cc(Br)ccc2O)cc(C#N)c1=O under Sa RN4220 lethal: 1.8
Reading for COc1ccc(C2(O)CCN(C(=O)c3c(F)cccc3F)CC2)cc1 under Mtb hypoxia inh: 3
Reading for CCOc1ccc(NC(=O)CN2CCN(CC(=O)Nc3ccc(F)cc3)CC2)cc1 under PrP UTR inh: -18
Reading for Cc1ccc(S(=O)(=O)NCCCCC(NC(=O)OC(C)(C)C)C(=O)O)cc1 (stereo not given) (tested in a mixture with another compound) under Bead autofluor: 6067
Reading for O=C(CNS(=O)(=O)N1CCOCC1)NN=Cc1cccnc1 under Mtb hypoxia inh: 7

Other compounds.
SMILES	Sa ugtP lethal	Bead autofluor	Mtb hypoxia inh	Mtb hypoxia inh growth	Sa RN4220 lethal	PrP UTR inh	BJeLR lethal
COc1ccccc1NS(=O)(=O)c1cccc(C(=O)NCC(c2ccc(F)cc2)N2CCOCC2)c1 (stereo not given)	-1	5913	-1	3	1.0	-8	-10
CN(CCC=C1c2ccccc2CSc2ccccc21)CCCO	1	/	7	5	3.0	/	/
CCOC(=O)N1CCN(CCC(=O)Nc2ccc(OC)cc2)CC1	2	4084	-6	-5	1.8	-11	3
COC(=O)Cc1cc(=O)[nH]c(N=C(N)Nc2ccc(C(C)C)cc2)n1	2	/	8	2	6.2	/	/
O=C1C2C3CCC(O3)C2C(=O)N1c1cc(OCC(F)F)cc([N+](=O)[O-])c1 (stereo not given)	2	5824	1	9	1.1	-10	/
CCc1cccc(NC(=O)[C@@H]2CCCN2C2=NS(=O)(=O)c3ccccc32)c1	3	3406	7	0	2.0	-8	/
Cc1ccc(N2C(=O)C(CC(=O)Nc3cccc(F)c3)N(CCc3ccncc3)C2=O)cc1 (stereo not given)	16	3835	11	2	2.2	-12	-4
COc1cc(C(=O)NCC(=O)N/N=C/c2c(C)[nH]c3ccccc23)cc(OC)c1OC	/	5432	/	/	/	-19	-2
COc1ccc(CC(=O)NNC(=O)c2ccccc2)cc1OC	-1	2733	-6	-2	1.2	-3	/
Cc1ccc([N+](=O)[O-])cc1S(=O)(=O)N1CCCC1	-1	1955	-1	-2	6.5	-18	6
CCOC(=O)C1=C(CC)Nc2ccccc2N=C1NC(=O)CCN1C(=O)C2CCCCC2C1=O (stereo not given)	-1	4071	-2	6	3.1	6	-8
O=C(CCCN1C(=O)/C(=C/c2ccccc2Cl)SC1=S)NNC(=O)c1ccccc1Cl	-10	2061	5	13	-4.9	31	-3
C[C@@H](C(=O)NCC1CCCO1)N1C(=O)N2CCc3c([nH]c4ccccc34)[C@@]2(C)C1=O (stereo not given in full)	-9	5602	/	/	9.7	-34	-3
S=C(c1ccc2c(c1)OCO2)N1CCOCC1	0	4438	-2	12	2.5	-7	-6
Cn1c(CN2CCOCC2)nnc1SCC(N)=O	/	2742	/	/	/	-12	2
Cc1ccc(NS(=O)(=O)c2c(C(=O)N3CCCCCC3)c(C)n(C)c2C)c(Cl)c1	8	5627	15	13	4.6	-16	10
COc1cc(OC)c(-c2nnc3n(CCc4ccccc4)c(=O)c4ccccc4n23)cc1OC	-3	/	7	5	-0.9	/	-10
CCC(C(=O)N1CCc2cc(OC)c(OC)cc2C1)c1ccccc1 (stereo not given)	-3	11988	-8	1	2.0	4	-8
O=C(Nc1ccccc1C(=O)N/N=C/c1ccncc1)c1ccccc1	/	2182	/	/	/	-35	32
COC(=O)c1ccc(N(CC(=O)NC2CCCC2)C(=O)CNC(=O)c2cccs2)cc1	10	3484	1	5	0.0	-23	-14
CC1CCN(c2c(NCc3ccc(C(=O)N4CCc5ccccc54)cc3)c(=O)c2=O)CC1	14	5748	1	6	-1.3	-18	22
CCOC(=O)c1cc2c(=O)n3ccccc3nc2n(C)c1=NC(=O)c1c(-c2c(F)cccc2Cl)noc1C	8	5351	8	-1	5.0	-15	-23
COc1cc(NC(=O)c2ccc(F)cc2)c(OC)cc1NC(=O)CN1CCCCC1	8	3868	4	10	3.2	-10	-4
CCn1cc(/C=C/C(=O)Nc2ccn(Cc3c(F)c(F)c(F)c(F)c3F)n2)cn1	6	2536	-14	-6	4.2	-38	2
C=CCn1c(NCCOC)nc2c1c(=O)n(C)c(=O)n2C	-4	3779	1	0	4.2	-15	-4

Next section, starting with the last 2 of the part before.
SMILES	Sa ugtP lethal	Bead autofluor	Mtb hypoxia inh	Mtb hypoxia inh growth	Sa RN4220 lethal	PrP UTR inh	BJeLR lethal
CCn1cc(/C=C/C(=O)Nc2ccn(Cc3c(F)c(F)c(F)c(F)c3F)n2)cn1	6	2536	-14	-6	4.2	-38	2
C=CCn1c(NCCOC)nc2c1c(=O)n(C)c(=O)n2C	-4	3779	1	0	4.2	-15	-4
CC(C)(C)NC(=O)C(c1ccncc1)N(C(=O)Cn1nnc(-c2ccc(F)cc2)n1)c1ccccc1F (stereo not given)	0	1989	-12	-8	5.5	-7	-17
Cc1cc(C)cc(OC(=O)COc2ccccc2C)c1	8	4046	11	-3	0.3	-14	2
CC(C)(C)c1ccc(OCCC(=O)Nc2cccc(S(=O)(=O)N3CCCC3)c2)cc1	-16	4343	-5	6	-4.7	-8	6
Cc1ccc(C)c(N(CC(=O)N(C)C)S(C)(=O)=O)c1	5	3609	/	/	0.2	-9	8
CC(Sc1nnc(-c2ccncc2)n1C)C(=O)Nc1ccc(N2CCOCC2)cc1 (stereo not given)	0	2797	4	1	-0.2	-22	/
COc1ccc(NC2=Nc3cccc4cccc2c34)cc1	8	2312	8	10	1.4	-10	19
CN1CCN(Cc2c(O)c(Cl)cc3c(-c4ccccc4)cc(=O)oc23)CC1	1	4665	/	/	1.6	-8	-4
O=C(CN1C(=O)NC2(CCc3ccccc32)C1=O)c1ccc(F)c(F)c1 (stereo not given)	11	6347	3	8	4.7	-13	7

Results in Bead autofluor and PrP UTR inh, for 2 of the compounds above:
Structure | Bead autofluor | PrP UTR inh
Cc1ccc(C)c(N(CC(=O)N(C)C)S(C)(=O)=O)c1 | 3609 | -9
COc1ccc(NC2=Nc3cccc4cccc2c34)cc1 | 2312 | -10
